# Screening data as filed in PubChem BioAssay.
# miR-21 reporter: miR-21 reporter, rising signal. HeLa miR-21 FLuc reporter, luciferase, 48 h. Potency, µM (titrated, usually from 38.3 µM), inactives show at the highest dose reporter change, positive = more light. 340,000 tested, under 10 active; active = well fitted rising curve with a large enough effect; inconclusive = small, poorly fitted or top-dose-only effect; inactive = no such curve, though single readings can be large or run the other way;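 further: % of control where 0% means no effect; miR-21 action dims this reporter so a rising signal means less miR-21 action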
#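 Compounds were titrated across several concentrations (up to approximately 40 uM) and incubated 48 hours with HeLa miR-21-FLuc reporter cells (miR-21 target sequence downstream of FLuc, endogenous miR-21). Readout was firefly luciferase luminescence after lytic detection reagent.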
# Rango dissoc inh: inhibition of RanGTP-driven Rango-importin beta dissociation | Biochemical FRET Rango-importin beta, RanGTP-induced dissociation | actives 0.071% (n = 340,000) | Potency, µM (highest dose often 46.1 µM), inactives show at the top dose activity change, negative = inhibition; active means falling FRET ratio curve, often poorly fitted, with flat reads before Ran was added; inconclusive means other falling curves, or compound fluorescence or quenching; inactive means flat or rising ratio curve;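 further: potency means the concentration at half of the fitted maximal effect; % of control where 0% means no effect; nearly all actives have a fitted effect of over 45% in size; -100% = wells without RanGTP and RCC1; the record marks most hits as doubtful in a second field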
#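 FRET read at 45 min, room temperature: inhibitors block the CFP/YFP signal rise when RanGTP (0.6 uM Ran, 2 mM GTP, 0.2 uM RCC1) frees Rango (0.1 uM) from importin beta (0.25 uM). Pre-read after 5 min compound exposure flags interference.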
# Rango-impB inh: inhibitors of Rango-importin beta complex formation. Rango CFP/YFP FRET sensor + importin beta, 45 min. actives 0.031% (n = 340,000). AID 540263. Potency, µM (highest dose often 92.2 µM), without a hit: at the top dose inhibition of complex formation; active = rising FRET ratio curve, often small or poorly fitted; inconclusive = mostly compound fluorescence or quenching in the first reads; inactive = flat curves in all reads;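 further: potency means the concentration at half of the fitted maximal effect; 0% = DMSO wells and 100% = buffer wells lacking importin beta; nearly all actives have a fitted effect of over 15% in size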
# Target sequence (Q14974 whole entry, looked up): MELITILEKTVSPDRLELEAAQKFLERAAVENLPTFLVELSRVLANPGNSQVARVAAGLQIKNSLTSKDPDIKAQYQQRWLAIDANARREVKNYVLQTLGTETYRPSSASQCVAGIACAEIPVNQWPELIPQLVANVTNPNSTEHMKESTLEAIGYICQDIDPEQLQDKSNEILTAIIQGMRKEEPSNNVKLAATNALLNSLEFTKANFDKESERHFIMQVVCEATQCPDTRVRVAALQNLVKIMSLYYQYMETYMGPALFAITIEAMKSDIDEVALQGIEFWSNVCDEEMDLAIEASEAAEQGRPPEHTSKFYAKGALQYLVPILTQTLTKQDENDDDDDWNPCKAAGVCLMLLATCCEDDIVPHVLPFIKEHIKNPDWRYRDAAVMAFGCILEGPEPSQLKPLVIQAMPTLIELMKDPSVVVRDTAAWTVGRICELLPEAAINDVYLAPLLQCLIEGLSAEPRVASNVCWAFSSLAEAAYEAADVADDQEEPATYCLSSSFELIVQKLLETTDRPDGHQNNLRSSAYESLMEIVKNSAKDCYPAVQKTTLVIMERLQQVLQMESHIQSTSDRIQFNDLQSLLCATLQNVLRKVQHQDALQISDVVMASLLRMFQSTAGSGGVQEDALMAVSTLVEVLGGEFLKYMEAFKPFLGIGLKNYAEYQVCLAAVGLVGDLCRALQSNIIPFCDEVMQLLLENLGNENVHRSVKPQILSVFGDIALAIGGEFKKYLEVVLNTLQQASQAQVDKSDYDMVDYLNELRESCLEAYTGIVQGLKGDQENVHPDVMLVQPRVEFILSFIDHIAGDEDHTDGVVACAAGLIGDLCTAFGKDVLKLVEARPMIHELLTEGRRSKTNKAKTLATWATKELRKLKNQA
#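 FRET biosensor Rango (snurportin 1 IBB between N-terminal EYFP and C-terminal Cerulean), 50 nM in PBS/1 mM DTT/0.02% Tween-20/0.1% BSA, preincubated 5 min RT with compound; 0.125 microM importin beta added, 45 min RT, CFP/YFP FRET ratio read.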
# GLA inh pH 4.5: alpha-galactosidase A (human) inhibition, pH 4.5; P06280; purified enzyme, 4-MU-alpha-Gal fluorescence, pH 4.5; activity change, negative = inhibition, % at 105 µM; 230,000 tested, under 10 active; inconclusive = small, poorly fitted or top-dose-only inhibition, or a rising curve; inactive = flat fitted curve, though single readings scatter; no compound was filed as active;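 further: 0% = full activity with enzyme and -100% = basal without enzyme; dose as in the result columns while the protocol names 77 µM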
# Active calls of the source: *; ? = inconclusive; · = no result given; & = joins results of further samples. A portion of the library; count on the stated rates, not on these rows.
SMILES,miR-21 reporter,Rango dissoc inh,Rango-impB inh,GLA inh pH 4.5
Cc1cc(C)n2nc(C(=O)OCC(=O)c3c[nH]c4ccccc34)nc2n1,-0.6%,0.8%,-5.4%,5.5
Brc1cnc(N2CCCC2)nc1N1CCCCC1,-10.7%,0.1%,4.4%,1.5
CN(C)S(=O)(=O)c1cccc(N=c2scc(-c3ccc4c(c3)NC(=O)CO4)n2CC2CCCO2)c1 (stereo unspecified),29.7%,2.1%,-0.4%,-12.1
O=C(CNC(=O)OCc1ccccc1)NC1CCCCNC1=O (stereo unspecified),-4.3%,4.5%,5.4%,·
CCc1cc(=O)[nH]c(SC/C=C/c2ccccc2)n1,-11.1%,0.7%,-1.2%,·
N#Cc1c(N)c(C(=O)c2ccccc2)n2c1CCC2,-14.8%,12.0%,-3.1%,3.0
COC(=O)[C@H](CC(C)C)NC(=O)NC1CCCc2ccccc21 (stereo partly specified),1.1%,-10.8%,-5.8%,0.0
CCN(CC)C(=O)c1cn(CCC#N)nc1-c1ccc(F)cc1,-0.4%,-22.4%,-2.2%,-1.1
O=C(Nc1ccccc1)c1ccc(=O)n(Cc2ccc(F)c(F)c2)c1,-0.5%,5.3%,3.5%,-1.8
O=C(CCc1ccc(S(=O)(=O)NCCc2ccccc2)cc1)NCc1ccco1,-3.1%,-1.8%,5.5%,2.2
Cc1cccc(N2CCN(C(=O)c3cc(=O)[nH]c4ccccc34)CC2)c1C,-0.2%,-18.2%,0.9%,-2.1
CCOC(=O)Cn1c(CN(C)Cc2ccccc2)nc2c1c(=O)n(C)c(=O)n2C,·,16.4%,0.1%,·
CCOC(=O)c1c(Nc2nc(C)c(C(=O)NC)s2)sc(C)c1C,-5.0%,-7.0%,-1.9%,1.0
COc1ccc2cc(C(=O)C3CCCN(C(=O)c4ccnn4C)C3)ccc2c1 (stereo unspecified),-1.0%,11.9%,-6.1%,5.4
CCCc1cc(C(=O)Nc2ccc(C(=O)c3ccc(C)cc3)cc2)n(C)n1,15.0%,11.6%,-3.9%,·
O=C(CN1C(=O)C2CC=CCC2C1=O)Nc1ccc(S(=O)(=O)Nc2nccs2)cc1 (stereo unspecified),0.2%,-20.0%,?,2.7
COc1ccc(S(=O)(=O)NC2(C(F)(F)F)NC(=O)N(CCc3ccccc3)C2=O)cc1 (stereo unspecified),-14.3%&-22.6%,-6.3%,-3.4%,·
NC(CSC1(c2ccc(Cl)cc2)c2ccccc2-c2ccccc21)C(=O)O (stereo unspecified),·,2.5%,-1.9%,·
CN(C)c1ccc(-c2nn3c(-c4ccccc4Cl)nnc3s2)cc1,19.4%,0.5%,-0.7%,9.6
CCOC(=O)C1=CN(CC)S(=O)(=O)NC1c1ccccc1 (stereo unspecified),·,-9.0%,2.7%,·
CCCN(CC(=O)Nc1ccccc1OC)C(=O)c1ccc2[nH]c3c(c2c1)CC(C)CC3 (stereo unspecified),·,1.1%,?,·
CCc1nccn1CCC(=O)NC1CCCc2c1cnn2-c1ccc(F)cc1F (stereo unspecified),0.2%,?,0.4%,·
CC(C)C(=O)N1CCN(c2ccc([N+](=O)[O-])c(NC(C)c3ccccc3)c2)CC1 (stereo unspecified),-7.8%,5.2%,-0.5%,-8.6
COC(=O)c1cc(S(=O)(=O)N2CCCC2)c(Cl)cc1Cl,1.1%,21.8%,-1.8%,·
COc1ccc(-c2nc3cnccn3c2NCc2ccccc2)cc1SC1CCCCC1,·,?,?,·
O=C(NC1CCN(Cc2ccccc2)CC1)c1cccc(S(=O)(=O)Nc2ccc(F)cc2)c1,·,-19.7%,-5.8%,·
Cc1ccc(NC(=O)N2CCN(Cc3ccc4c(c3)OCO4)CC2)cc1,-1.7%,-2.2%,0.7%,5.0
COc1ccc(CCNC(=O)C2CCCN2C(=O)Nc2cccc(OC)c2)cc1 (stereo unspecified),2.5%,-9.9%,-0.7%,·
COc1ccc(CC(=O)OCC(=O)N(C)C2CCS(=O)(=O)C2)cc1OC (stereo unspecified),·,3.1%,-4.3%,·
Cn1c(SCC(=O)Nc2ccc(C(N)=O)cc2)nc2c(c1=O)SCC2,6.0%,6.8%,-1.3%,·

# Quoted at random: two compounds from above
SMILES,miR-21 reporter,Rango dissoc inh,Rango-impB inh,GLA inh pH 4.5
CCOC(=O)C1=CN(CC)S(=O)(=O)NC1c1ccccc1 (stereo unspecified),·,-9.0%,2.7%,·
COc1ccc(S(=O)(=O)NC2(C(F)(F)F)NC(=O)N(CCc3ccccc3)C2=O)cc1 (stereo unspecified),-14.3%&-22.6%,-6.3%,-3.4%,·

# A run of entries from further up, for reference:
SMILES,miR-21 reporter,Rango dissoc inh,Rango-impB inh,GLA inh pH 4.5
CCc1nccn1CCC(=O)NC1CCCc2c1cnn2-c1ccc(F)cc1F (stereo unspecified),0.2%,?,0.4%,·
CC(C)C(=O)N1CCN(c2ccc([N+](=O)[O-])c(NC(C)c3ccccc3)c2)CC1 (stereo unspecified),-7.8%,5.2%,-0.5%,-8.6
COC(=O)c1cc(S(=O)(=O)N2CCCC2)c(Cl)cc1Cl,1.1%,21.8%,-1.8%,·

# Results in GLA inh pH 4.5, Rango dissoc inh and miR-21 reporter (6 entries from above):
SMILES	GLA inh pH 4.5	Rango dissoc inh	miR-21 reporter
CCCc1cc(C(=O)Nc2ccc(C(=O)c3ccc(C)cc3)cc2)n(C)n1	·	11.6%	15.0%
O=C(CN1C(=O)C2CC=CCC2C1=O)Nc1ccc(S(=O)(=O)Nc2nccs2)cc1 (stereo unspecified)	2.7	-20.0%	0.2%
COc1ccc(S(=O)(=O)NC2(C(F)(F)F)NC(=O)N(CCc3ccccc3)C2=O)cc1 (stereo unspecified)	·	-6.3%	-14.3%&-22.6%
NC(CSC1(c2ccc(Cl)cc2)c2ccccc2-c2ccccc21)C(=O)O (stereo unspecified)	·	2.5%	·
CN(C)c1ccc(-c2nn3c(-c4ccccc4Cl)nnc3s2)cc1	9.6	0.5%	19.4%
CCOC(=O)C1=CN(CC)S(=O)(=O)NC1c1ccccc1 (stereo unspecified)	·	-9.0%	·

# Next section.
SMILES,miR-21 reporter,Rango dissoc inh,Rango-impB inh,GLA inh pH 4.5
COc1cc(Cl)c(C)cc1NC(=O)CSCC#N,1.5%,1.6%,-4.2%,-0.4
C=CCNC(=O)c1c(Br)cnn1-c1ccc(C)cc1,-58.5%,13.9%,-1.2%,10.2
COc1ccccc1NC(=O)COC(=O)CCC(=O)c1cccs1,·,5.2%,-4.9%,·
Cc1cc(NC(=O)c2ccc(Cl)cc2)n(-c2ccccc2)n1,-8.4%,9.3%,-0.1%,·
Cc1ccc(OCc2cc(C(=O)NCCc3cccnc3)no2)cc1C,-20.1%,-10.7%,-0.3%,·
CCCCCCCCCCC[C@@H](C[C@@H]1OC(=O)[C@H]1CCCCCC)OC(=O)[C@H](CC(C)C)NC=O,-0.5%,4.9%,-3.4%,-12.0
O=c1[nH]c(=S)[nH]c2nccnc12,·,-1.2%,4.9%,·
Cc1nnc(SCC2CCCO2)n1-c1ccccc1 (stereo unspecified),-4.5%,0.1%,2.0%,12.7
CC(C)(C)c1cc(-c2ccccc2)no1,1.1%,-10.1%,0.2%,-0.9
CC(=O)Nc1ccc(-c2ccnc(-c3ccc(NC(C)=O)cc3)n2)cc1,-6.6%,0.6%,-2.3%,3.9
NS(=O)(=O)c1ccc(NC(=S)Nc2ccc(F)c(F)c2)cc1,0.9%,-11.3%,-0.4%,3.9
CN(CC(O)COCc1cccs1)C1CCCCC1 (stereo unspecified),-4.6%,1.9%,3.6%,1.4
O=C(O)C1CCCN1C(=O)Nc1ccc(F)cc1 (stereo unspecified),0.0%,0.1%,4.8%,-7.8
CCOC(=O)N1CCN(S(=O)(=O)c2ccc(C(=O)N(CCCN(C)C)c3nc4ccc(CC)cc4s3)cc2)CC1,0.2%,-9.0%,2.0%,·
CN(C)C(CNc1ccc(C(F)(F)F)cc1[N+](=O)[O-])c1ccccc1 (stereo unspecified),0.6%,0.3%,0.1%,·

# Some of these compounds in order of number of heavy atoms, ascending.
SMILES,miR-21 reporter,Rango dissoc inh,Rango-impB inh,GLA inh pH 4.5
CCOC(=O)C1=CN(CC)S(=O)(=O)NC1c1ccccc1 (stereo unspecified),·,-9.0%,2.7%,·
CCOC(=O)c1c(Nc2nc(C)c(C(=O)NC)s2)sc(C)c1C,-5.0%,-7.0%,-1.9%,1.0
COc1ccc(CC(=O)OCC(=O)N(C)C2CCS(=O)(=O)C2)cc1OC (stereo unspecified),·,3.1%,-4.3%,·

# Next section.
SMILES,miR-21 reporter,Rango dissoc inh,Rango-impB inh,GLA inh pH 4.5
Cc1ccc([C@@H]2[C@@H]3C(=O)N(C)C(=O)[C@@H]3[C@]3(Cc4ccccc4)C(=O)N(CCO)CC(=O)N23)o1,-0.2%,2.9%,-5.7%,·
COc1ccc(S(=O)(=O)Nc2ccc3c(c2)C(=O)N([C@@H](C)CO)C[C@H](C)[C@H](CN(C)CC2CC2)O3)cc1,·,-13.9%,2.7%,·
CCOc1ccccc1NC(=O)CSc1nnc(Cc2ccc(OC)cc2)c(=O)n1N,·,13.9%,-2.7%,·
O=C(CNC(=O)c1ccc(Br)o1)Nc1cccc(-c2cnc3ccccc3n2)c1,-9.4%,2.8%,-0.7%,7.1
Cc1ccc(C(C)C)c(OCC(=O)NNC(=O)C(C(C)C)N2C(=O)c3ccccc3C2=O)c1 (stereo unspecified),-6.8%,2.0%,3.8%,-6.5
CCCNCc1cc(OC)c(OCC(=O)NCCc2ccccc2)cc1Br,-1.7%,5.9%,3.9%,0.8
Cc1ccc(C(=O)NCC(=O)OCc2nnc(-c3ccccc3)o2)cc1,-14.3%,17.2%,-0.5%,·
C=CCN1C(=O)c2ccc(C(=O)NCC(c3ccccc3)N(C)C)cc2C1=O (stereo unspecified),-5.2%,-0.3%,1.8%,·
CSCCC(NC(=O)COc1ccccc1)C(=O)NC1CCC(C)CC1 (stereo unspecified),·,5.9%,-2.7%,·
CC1=NNC(=O)C1CC(=O)N/N=C/c1sccc1C (stereo unspecified),-0.1%,4.2%,3.1%,-3.9
Cc1cc(C)n(CCCNC(=O)c2ccc(S(=O)(=O)NCc3ccco3)cc2)n1,-7.8%,-5.8%,-2.3%,8.5
O=C(Nc1sc2c(c1CN1CCOCC1)CCC2)c1ccc(F)cc1,-26.5%,-4.9%,?,-2.3
O=C(N/N=C/c1cn(-c2ccccc2)nc1-c1cc2ccccc2o1)c1cccnc1,-58.1%,?,-1.6%,-10.3
Cc1ccc(Cn2c(C(C)Nc3nc(C)cs3)nc3cc(Cl)c(Cl)cc32)cc1 (stereo unspecified),·,38.3%,0.5%,·
O=C(CN1C(=O)/C(=C\c2ccccc2Br)Oc2ccccc21)NCCCN1CCOCC1,-3.9%,-11.0%,1.6%,·
Cc1ccc2cccc(SCC(=O)NCc3ccco3)c2n1,-6.1%,18.2%,-0.8%,1.0
Cc1ccc(S(=O)(=O)Oc2ccccc2-c2ccccc2)cc1,·,1.4%,-2.2%,·
O=C(Nc1nc2ccccc2[nH]1)c1ccc(Cl)c(S(=O)(=O)N2CCCC2)c1,-4.1%,-4.1%,-1.1%,2.9
CCOC(=O)Cc1cc(-c2ccc(O)cc2)nc2ccc3ccccc3c12,-0.9%,-2.2%,3.2%,-3.0
COc1ccc(/C=C/C(=O)NCCCc2ccccc2)cc1,-12.0%,-0.8%,1.0%,2.9
Cc1nn(-c2ccccc2)c(=O)c2ccccc12,-15.8%,-0.6%,-4.3%,-3.5
COC(=O)c1sccc1-c1ccc(/C=N/OC(=O)c2ccccc2)o1,-19.9%,9.1%,0.4%,-14.7
CCOc1ccc(-n2c(O)cc(=O)[nH]c2=O)cc1,-9.1%,2.8%,1.2%,-2.6
CCOc1ccc(S(=O)(=O)N2CCCCC2)cc1NC(=O)Cc1ccccc1,·,-2.2%,-1.2%,·
